Vif TR-FRET: inhibitors of Vif binding to APOBEC3G peptide, primary screen, biochemical, TR-FRET, GST-Vif 1-94, biotin-A3G peptide, dose response retest (AID 1117319); inhibition, %; hits with a dose series show IC50 in µM; 260,000 tested, 0.57% active; TR-FRET GST-Vif / biotin-A3G peptide binding; higher % means a stronger effect; test concentration not given here; strong numbers were not always called active;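 active means above the screen mean plus three standard deviations and confirmed in dose response; inconclusive means results disagree or hit not tested in dose response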;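 further: Vif residues 1-94 fused to GST binding biotinylated APOBEC3G peptide 110-148; 0% = full assay without inhibitor and 100% = GST in place of GST-Vif; retest series ran down from 100 µM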
Ecoli growth: blocks Escherichia coli growth. OD600, 23 h; hits give low values. OD600 absorbance (concentration not given with the values). 330,000 tested, 0.21% active;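 active means OD600 absorbance below the run mean of sample wells minus 3.6 SD, in any replicate, cut at about 0.56 in these data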;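 further: stock transfer was 300 nL into about 60 µL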
AF4-AF9 inh: inhibitors of human MLL-AF4/AF9 interaction | AlphaScreen, biotin-AF4 peptide binding to FLAG-AF9 | inhibition, % at 10 µM | 350,000 tested, 0.47% active | AID 651704;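 active means every replicate reaching a set inhibition limit, whatever the replicate mean, cut at about 25% in these data; inconclusive means mean inhibition reaches that limit but some replicates miss it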;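 further: 0% = plate neutral control median and 100% = total signal loss; the record names both 10 and 1 µM as test concentration; the first replicate is given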
RanGTP-Imp inh: inhibitors of RanGTP-importin-beta interaction, primary screen, biochemical, FRET, CFP-Ran, YFP-importin-beta, homogeneous; cell-free CFP-Ran/YFP-importin-beta FRET ratio; inhibition, % (concentration not given with the values); 300,000 tested, 1.1% active; AID 2216;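 active means most replicates above 15%; inconclusive means exactly half above 15%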;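 further: 0% = DMSO wells and 100% = Ran loaded with GDP instead of GTP; wells of about 40 µL received 100 nL stock; the first replicate is given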
FGF22 binding: binders of recombinant human FGF22 by thermal shift | calls only at 9.99 µM | Q9HCT0 | SYPRO orange fluorescence; percent of sucrose octasulfate shift, DMSO zero | 340,000 tested, 1.5% active;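 active means melting point raised past a set limit in the mean and every replicate; inconclusive means no clear call; three in four hits are not shown here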
Target sequence (Q9HCT0 whole entry, looked up): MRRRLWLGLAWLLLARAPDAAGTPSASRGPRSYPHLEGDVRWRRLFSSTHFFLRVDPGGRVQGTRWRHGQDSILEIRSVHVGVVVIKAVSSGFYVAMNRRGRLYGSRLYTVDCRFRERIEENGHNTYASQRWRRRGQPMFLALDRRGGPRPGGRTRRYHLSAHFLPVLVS
HNF4A DNA FP: change in binding of human HNF4 alpha to DNA; P41235; HNF4a-FITC DNA binding, fluorescence polarization, 1 h; activity change, % at 10 µM; 360,000 tested, 0.3% active; AID 1224865; in the data active means activity change above about 30%, passing the limit was not always enough;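 further: controls were the assay level and a saturating level of protein; the project sought stronger binding though the title names inhibitors; some compounds called inactive have numbers as strong as hits; positive values seem to mean higher polarization but the record does not say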
Target sequence (P41235 whole entry, looked up): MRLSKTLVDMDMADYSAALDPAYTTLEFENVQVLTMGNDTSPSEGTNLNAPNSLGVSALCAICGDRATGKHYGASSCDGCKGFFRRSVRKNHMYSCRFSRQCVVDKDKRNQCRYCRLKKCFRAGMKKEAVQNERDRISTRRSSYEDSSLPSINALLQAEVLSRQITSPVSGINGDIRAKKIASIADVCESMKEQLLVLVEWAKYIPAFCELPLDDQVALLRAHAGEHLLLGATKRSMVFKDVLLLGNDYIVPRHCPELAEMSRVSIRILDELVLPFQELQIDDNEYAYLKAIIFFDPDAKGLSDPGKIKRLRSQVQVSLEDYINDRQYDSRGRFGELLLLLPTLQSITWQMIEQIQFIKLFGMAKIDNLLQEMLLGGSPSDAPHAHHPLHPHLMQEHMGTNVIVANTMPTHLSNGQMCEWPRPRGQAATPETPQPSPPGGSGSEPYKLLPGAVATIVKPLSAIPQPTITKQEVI
UCH37 DUB inh: inhibitors of human deubiquitinating enzyme UCH37; 330,000 tested, 0.33% active; purified proteasome/UCH37, Ub-AMC cleavage fluorescence; AID 588478; inhibition, % (test concentration not listed);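 active means mean of two replicates above 20%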;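 further: 0% = compound-free wells with enzyme and 100% = wells lacking proteasome; stock transfer was 100 nL into about 20 µL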
Target sequence (Q9Y5K5 whole entry, looked up): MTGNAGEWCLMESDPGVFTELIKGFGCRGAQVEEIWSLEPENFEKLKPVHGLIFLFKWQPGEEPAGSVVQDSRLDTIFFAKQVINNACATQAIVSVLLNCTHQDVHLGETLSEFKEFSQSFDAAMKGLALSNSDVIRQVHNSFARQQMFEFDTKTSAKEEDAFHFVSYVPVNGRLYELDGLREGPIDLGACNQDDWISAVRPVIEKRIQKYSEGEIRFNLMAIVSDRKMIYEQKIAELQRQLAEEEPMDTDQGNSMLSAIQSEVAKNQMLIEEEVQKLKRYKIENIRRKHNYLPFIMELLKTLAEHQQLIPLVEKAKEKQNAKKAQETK
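Signal – fluorescence, ex 355 nm, em 460 nm · System – Proteasome-bound UCH37 · Input – 0.15 nM proteasome as dispensed · Timing – 30 min preincubation with enzyme, 25 min cleavage at room temperature · Read-out basis – percent inhibition of cleavage signal versus uninhibited and no-proteasome wells · Medium – Tris-HCl pH 7.4 with ATP-MgCl2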
* marks the source's active call; other numbers are inactive results; i = inactive; u = inconclusive; x = no result given; & = joins results of further samples. This is a subset; count on the stated rates, not on these rows.

Vif TR-FRET | Ecoli growth | AF4-AF9 inh | RanGTP-Imp inh | FGF22 binding | Molecule | HNF4A DNA FP | UCH37 DUB inh
7% | 0.69 | x | -6.7 | x | Cc1nc(Cl)c(C(=O)NC(=O)Nc2cccc(C(F)(F)F)c2)c(C)c1[N+](=O)[O-] | 0.5 | 3.4
-2% | 0.7 | x | -1.4 | x | O=C1CC(c2ccc(S(=O)(=O)Nc3cc(C(F)(F)F)cc(C(F)(F)F)c3)cc2)CN1 (stereo unspecified) | -0.8 | 0.5
1% | 0.68 | 3.3 | 20* | i | Cc1nc2ccc(NC(=O)c3nn(CC(C)C)c(=O)c4ccccc34)cc2s1 | 2.0 | 0.9
x | 0.69 | 0.9 | 1.7 | i | O=C(CSc1nc2ccccc2[nH]1)Nc1nc(-c2cccc(Br)c2)cs1 | 3.4 | 4.8
-4% | 0.67 | 0.5 | -3.3 | i | O=S(=O)(c1cccc(COc2c(Cl)cccc2Cl)c1)N1CCOCC1 | -1.0 | 2.2
4% | 0.77 | x | -1.2 | x | CCn1c(=O)n(CC(=O)N(C)Cc2ccccc2)c(=O)c2ccccc21 | 1.5 | -0.2
x | 0.7 | x | -1.6 | x | COc1ccc(-c2nc(NC(=O)c3ccc(OCC(=O)N4CCOCC4)c(OC)c3)sc2C)cc1 | -0.8 | -7.5
-3% | 0.65 | x | -2.5 | x | Cc1ccccc1-n1nnnc1SCc1ncc(-c2ccccc2)o1 | 0.7 | 2.3
x | 0.69 | -0.2 | 4.7 | i | O=C(COc1ccccc1Cl)Nc1cc(NC(=O)COc2ccccc2Cl)cc(C(=O)O)c1 | 0.5 | -1.4
-3% | 0.81 | x | x | x | N#Cc1c(NC(=O)c2nc3ncccn3n2)sc2c1CCCCC2 | -1.6 | -29
-1% | 0.69 | x | u | x | COCCN1C(=O)c2oc3cc(C)c(C)cc3c(=O)c2C1c1ccc(O)cc1 (stereo unspecified) | -0.2 | 2.4
-7% | 0.7 | -2.8 | -2.6 | i | COc1ccc(CNS(=O)(=O)NCc2ccccc2)cc1 | 0.3 | 3.3
10% | 0.69 | 3.0 | u | i | CC(C)(C)NC(=O)C(c1ccncc1)N(C(=O)c1csnn1)c1cccc2ccccc12 (stereo unspecified) | -1.9 | 3.4
-9% | 0.71 | -4.3 | 0.2 | i | COc1ccc(-c2nc(C)sc2CC(=O)O)cc1OC | 2.4 | 2.6
0% | 0.68 | x | -2.0 | x | COC(=O)c1cc2sc(Cl)cc2n1CC(=O)N1CCCc2ccccc21 | 1.8 | 3.8
-1% | 0.75 | -3.0 | 6.2 | i | Cc1ccc2c(c1)NC(=O)C(CC(=O)O)O2 (stereo unspecified) | 1.5 | 2.9
-9% | 0.71 | 1.8 | x | i | CCCCCC(=O)Nc1cc(S(=O)(=O)N2CCCCC2)ccc1N1CCCCC1 | -0.6 | -4.0
-3% | 0.66 | x | 0.2 | x | Cc1cc(NS(=O)(=O)c2ccc(NC(=O)COc3ccccc3Cl)cc2)no1 | 0.8 | 4.4
x | 0.67 | x | -1.0 | x | Cc1ccc(S(=O)(=O)CCC(=O)OCC(=O)c2c(C)[nH]c3ccccc23)cc1 | x | 8.8
x | 0.71 | 2.1 | -1.0 | i | CCOC(=O)C1CCN(C(=O)CCNS(=O)(=O)c2ccc3c(c2)CCN3C(=O)CC)CC1 | 0.8 | 0.0

Remaining list, next part.
Vif TR-FRET | Ecoli growth | AF4-AF9 inh | RanGTP-Imp inh | FGF22 binding | Molecule | HNF4A DNA FP | UCH37 DUB inh
-7% | 0.68 | 1.5 | 1.5 | i | CSCCC(NC(=O)C1CCC(C)CC1)C(=O)Nc1ccc(NC(C)=O)cc1 (stereo unspecified) | -0.2 | 1.3
9% | 0.73 | x | 7.4 | x | COc1c(F)c(F)c(C(=O)O)c(Nc2ccc(C)cc2)c1F | 3.9 | -1.8
x | 0.62 | 0.8 | 3.5 | i | Cc1cc(C)nc(NCc2ccc(Cl)cc2)n1 | -0.9 | 2.3
8% | 0.66 | -3.1 | 4.0 | i | CCn1cc(Br)c(C(=O)Nc2nccs2)n1 | 1.6 | -0.6
6% | 0.68 | -1.3 | -1.2 | i | CN(c1ccc(C(=O)N2CCN(Cc3ccc4c(c3)OCO4)CC2)cc1)S(C)(=O)=O | 0.6 | 1.5
x | 0.7 | x | 0.6 | x | O=C(C1=C(O)C(=O)N(CCN2CCOCC2)C1c1ccc([N+](=O)[O-])cc1)c1cc2ccccc2o1 (stereo unspecified) | -0.1 | 8.2
-1% | 0.68 | -0.1 | -2.2 | i | Cc1cccc(N2C(=O)c3cccc(Oc4ccc(Cl)cc4)c3C2=O)c1 | 0.6 | 2.6
x | x | -1.1 | x | i | CCC(=O)N1CCC1(C)C(=O)Nc1cc(-c2ccccc2)nn1C (stereo unspecified) | -0.6 | x
x | 0.7 | -17 | -13 | i | CCCCC1=CC2=C(c3ccco3)C(=O)C(C)(OC(=O)c3ccc(OC)cc3)C(=O)C2=CN1CCc1ccccn1 (stereo unspecified) | -1.2 | 1.7
12% | x | 2.3 | 11 | i | O=C1/C(=C\c2ccccn2)SC(=S)N1c1ccc(S(=O)(=O)Nc2nccs2)cc1 | 0.8 | x
30% | 0.68 | 3.5 | 1.8 | i | Cc1ccccc1N=Cc1cc2c(cc1[N+](=O)[O-])OCO2 | 1.0 | 5.3
x | 0.72 | -3.7 | 2.1 | i | CCc1ccc(C(C(=O)NC2CCCCC2)N(C(=O)c2csnn2)C2CC2)cc1 (stereo unspecified) | 2.0 | 3.9
-4% | x | x | -2.8 | x | CSc1nncn1/N=C/c1cc(Cl)ccc1F | -3.0 | x
x | x | 2.8 | x | i | CCN1C(=O)[C@@H]2[C@@H](c3ccc(-c4ccc(C(C)=O)cc4)c(OC)c3)N3CCC[C@@]3(C(=O)OC)[C@@H]2C1=O | -1.2 | 0.0
u | 0.7 | 1.4 | -0.2 | i | O=C(/C=C\c1ccc2c(c1)OCO2)Nc1nnc(SCC(=O)OCc2ccccc2)s1 | x | -83
3% | 0.7 | x | 0.5 | x | Cc1cc(Cl)cc(Br)c1OCCCCn1cncn1 | 2.1 | 5.2
6% | 0.67 | x | 179* | x | COc1ccccc1N=c1oc2cc(O)ccc2cc1C(N)=O | 18 | i
x | 0.71 | -3.6 | -96 | i | Nc1c(C(=O)c2ccc(Cl)cc2)sc2nsc(SCCN3CCOCC3)c12 | 55 | 6.5
1%&6% | 0.66 | x | -1.0 | x | CC(C)C(=O)N1CCN(c2nc(-c3ccccc3)c3c(c2C#N)CCCC3)CC1 | 2.5 | -112
1% | 0.68 | x | 3.5 | x | O=C1CC(c2ccccc2)CC(O)=C1C=NC1CCCCCC1 (stereo unspecified) | 0.6 | 1.6

(cont.)
Vif TR-FRET | Ecoli growth | AF4-AF9 inh | RanGTP-Imp inh | FGF22 binding | Molecule | HNF4A DNA FP | UCH37 DUB inh
-2% | 0.68 | x | -3.3 | x | Cc1c(NC(=O)c2ccc3ncccc3c2)c(=O)n(-c2ccccc2)n1C | 3.5 | 1.9
10% | x | -1.1 | 1.9 | i | COc1ccc(/C=N/NC(=O)Cn2nc([N+](=O)[O-])cc2C)c(OC)c1OC | 2.4 | x
0% | 0.7 | x | -2.2 | x | O=C(c1ccc(-c2ccccc2)cc1)N1CCCC1 | 0.1 | 1.9
x | 0.67 | -0.6 | -1.1 | i | Cc1cc(=O)n2c3ccccc3n(CC(O)CN3CCN(CCO)CC3)c2c1C#N (stereo unspecified) | 2.7 | -43
x | x | 4.1 | x | i | CNc1cncc(-c2ccc(OC)cc2OC)n1 | -0.5 | x
8% | 0.7 | 1.0 | -1.6 | i | Cc1cccn2c(CNCCCOc3cccnc3)c(C(=O)N3CCOCC3)nc12 | 4.2 | 0.2
12% | 0.68 | x | -0.5 | x | CCN(CC)CCOC(=O)c1cccc(Br)c1 | -6.9 | 0.4
3% | 0.67 | 6.2 | 1.9 | i | Cc1c(-c2csc(N)n2)c2ccccc2n1C | 1.6 | -0.1
-94% | 0.67 | -1.0 | x | i | Cn1nc(C(=O)OCC(=O)Nc2cc(Cl)ccc2C#N)c2ccccc2c1=O | -1.2 | -1.1
-11% | 0.67 | x | 1.3 | x | CCCCc1ccc(/C=C2/C(=O)ON=C2c2ccccc2)s1 | -0.7 | 2.4
5% | 0.67 | -1.0 | x | i | Cc1cc(C)c(C)c(S(=O)(=O)Nc2ccccc2C(=O)NN2CCOCC2)c1C | 0.1 | 0.1
x | 0.62 | -4.1 | 2.3 | i | CCCCCCCCCCSc1n[nH]c(N)n1 | -2.1 | 5.6
3% | 0.71 | x | -1.0 | x | Cc1csc(NC(=O)c2ccccc2C(=O)O)n1 | -3.6 | 0.8
-2% | 0.64 | -5.9 | 13 | i | Clc1ccc(-c2nc(N3CCOCC3)nc3ccccc23)cc1 | 2.7 | -82
-5% | 0.67 | -4.0 | 0.7 | i | O=[N+]([O-])c1ccc(S(=O)(=O)CC(CN2CCOCC2)N2CCOCC2)cc1 (stereo unspecified) | -4.5 | 0.4
2% | 0.68 | -1.5 | x | i | CC(=O)c1ccccc1NC(=O)CCN1C(=O)C2CCCCC2C1=O (stereo unspecified) | -0.1 | -1.0
33% | x | x | -5.6 | x | C=C(C)COc1ccc(-c2n[nH]c(C)c2Oc2ccccc2OC)c(O)c1 | 0.0 | 35*
0% | x | -1.2 | 3.1 | i | CNC(=S)N/N=C/c1cc(Br)c(OCc2ccncc2)c(OC)c1 | 4.5 | x
1% | 0.68 | x | 2.3 | x | CC(C)(C)NC(=O)NC(=O)COC(=O)C1=COCCO1 | -1.4 | 1.0
21% | 0.68 | -8.1 | 0.8 | i | COc1ccccc1NC(=O)COc1cc(C)nc(C(C)C)n1 | 1.2 | 4.0

(more compounds)
Vif TR-FRET | Ecoli growth | AF4-AF9 inh | RanGTP-Imp inh | FGF22 binding | Molecule | HNF4A DNA FP | UCH37 DUB inh
3% | 0.68 | -0.7 | -2.4 | i | CCn1c(C(=O)O)c(CC(=O)N(C)c2ccc(OC)cc2OC)c2ccccc21 | 0.1 | 2.4
2% | 0.68 | 3.6 | -3.5 | i | O=C(NCc1ccccc1)NC1CCCCC1 | 4.9 | -0.3
28% | 0.71 | 2.5 | -1.2 | i | COc1cccc(-n2c(SCC(=O)Nc3ccc4c(c3)CCC4)nc3ccccc3c2=O)c1 | -1.4 | 1.0
x | x | x | 2.0 | x | CCCCC(=O)N1C/C=C\C(c2ccc(OC)cc2)N(Cc2ccc(F)cc2)C(=O)[C@H]1Cc1ccccc1 (stereo partly specified) | 1.3 | 5.5
-4% | x | 1.1 | 5.0 | i | COc1ccccc1N(/N=C1\Sc2ccccc2C1=O)C(C)=O | -3.0 | x
-6% | 0.72 | -3.2 | x | i | COC(=O)c1cccc(NC(=O)CCc2c(C)noc2C)c1 | -0.6 | 0.1
-2% | 0.7 | 3.7 | x | i | CC(C)(CNC(=O)c1cccs1)N1CCOCC1 | 0.9 | 1.6
-1% | 0.71 | -0.7 | 2.5 | i | COc1ccc(CCC(=O)OCC(=O)Nc2ccc3[nH]c(=O)[nH]c3c2)cc1 | -0.8 | 1.6

Structures from the list above with a furan ring, fused or not:
Vif TR-FRET | Ecoli growth | AF4-AF9 inh | RanGTP-Imp inh | FGF22 binding | Molecule | HNF4A DNA FP | UCH37 DUB inh
x | 0.7 | x | 0.6 | x | O=C(C1=C(O)C(=O)N(CCN2CCOCC2)C1c1ccc([N+](=O)[O-])cc1)c1cc2ccccc2o1 (stereo unspecified) | -0.1 | 8.2
x | 0.7 | -17 | -13 | i | CCCCC1=CC2=C(c3ccco3)C(=O)C(C)(OC(=O)c3ccc(OC)cc3)C(=O)C2=CN1CCc1ccccn1 (stereo unspecified) | -1.2 | 1.7

Bioassay records: PubChem BioAssay, several laboratories
